Screening data: PubChem BioAssay, several laboratories
NTR1 ag: NTR1-driven beta-arrestin-GFP spot formation – imaging, U2OS cells, high content, primary screen (AID 493036); agonist mode; hit rate 0.17% among 330,000; activation, % at 20 µM; P30989;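 active = activation at or above 40% of the spot to cytoplasm intensity ratio, with at least 20 cells analyzed; inconclusive = wells under 20 cells, flagged as cytotoxic or low count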;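 note: 0% = DMSO without peptide and 100% = 100 nM NTR1 peptide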
Target sequence (P30989 whole entry, looked up): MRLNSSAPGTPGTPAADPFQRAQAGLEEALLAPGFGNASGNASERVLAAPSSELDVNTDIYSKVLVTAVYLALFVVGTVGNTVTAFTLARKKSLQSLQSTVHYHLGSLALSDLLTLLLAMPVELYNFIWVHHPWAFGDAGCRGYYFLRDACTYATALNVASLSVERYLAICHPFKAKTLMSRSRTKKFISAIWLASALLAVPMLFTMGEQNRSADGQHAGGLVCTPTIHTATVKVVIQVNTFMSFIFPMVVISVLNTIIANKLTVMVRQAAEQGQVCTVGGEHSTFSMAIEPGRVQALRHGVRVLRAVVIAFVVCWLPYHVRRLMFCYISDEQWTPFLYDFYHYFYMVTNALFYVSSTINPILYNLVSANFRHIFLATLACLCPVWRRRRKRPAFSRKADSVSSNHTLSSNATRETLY
TNAP activators: human TNAP enzyme activators, primary screen, biochemical, luminescent, no phosphate acceptor, uHTS (AID 1001); purified TNAP, luminescent activation assay, no phosphate acceptor; higher activation fold means a stronger effect; activation fold at 20 µM; hits with a dose series show EC50 in µM; hit rate 0.03% among 200,000; in the data active = activation fold from about 3, or a potency from the dose series; inactive = the rest, 99 in 100 with activation fold below about 1.6; note: many of its hits are not listed in these tables
GPR55 activation: GPR55 agonists via beta-arrestin recruitment, primary screen, imaging, U2OS cells, beta-arrestin-GFP redistribution (AID 1961) | hit rate 0.048% among 290,000 | activation, % at 10 µM, or EC50 in µM where a hit was titrated | U2OS GPR55 beta-arrestin-GFP redistribution imaging; higher % means a stronger effect;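 active = activation above 40% with more than 50 cells counted in the well; inconclusive = wells holding fewer than 50 cells, flagged as toxic or sparse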;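 note: U2OS osteosarcoma cells stably expressing GPR55 and beta-arrestin-GFP; plate controls were DMSO negative control for no effect and LPI positive control for full effect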
CSM14.1 death rescue: rescue of cells from ER stress-induced death, primary screen, 384-well, CSM14.1, thapsigargin, ATP luminescence (AID 1222). CSM14.1 thapsigargin-induced death rescue, ATP luminescence; higher % means a stronger effect. 190,000 tested, under 10 active. cellular ATP content (survival), % at 20 µM; hits with a dose series show EC50 in µM;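 active = EC50 below 50 µM in the dose-response confirmation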;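 note: death triggered by thapsigargin at about 15 µM added after 2 h compound pretreatment; cell ATP read after overnight thapsigargin exposure of roughly 18 to 22 hours; normalized against plate controls of thapsigargin alone and 5% DMSO vehicle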
Yfh1-off respiration: enhancers of respiration in Yfh1-depleted yeast, dose response, Friedreich's ataxia, plus single-dose screen (AID 1465); one-dose fold induction at 50 µM; EC50 in µM for titrated hits; S. cerevisiae Yfh1-off respiration, WST-1 reduction, 72 h; higher fold induction means a stronger effect; hit rate 0.074% among 220,000;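 active = fold induction of absorbance versus untreated yeast above a set limit, then at least 30% activation at any dose in follow-up; inconclusive = repeats straddling the limit, or above it without dose testing; inactive = fold induction below the set limit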;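 note: activators that raise dye reduction in frataxin-depleted yeast; strong numbers were not always called active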
KOR agonists: kappa opioid receptor activators – cell-based, luminescence, uHTS, primary screen (AID 1777) | KOR beta-arrestin recruitment, luminescence; higher % means a stronger effect | one-dose activation, % at 10 µM; EC50 in µM for titrated hits | hit rate 0.02% among 280,000; in the data active = activation above about 50%, passing the limit was not always enough; note: a part of the inactive calls stands beside numbers as strong as those of hits
NTR1 ag cell count 20 µM: further read-out of NTR1 ag, marked with its call; cell count; measured here: cell count, cytotoxicity flag
* = called active by the depositor; i = inactive; ? = inconclusive; nt = no result given. Only part of the results is shown (hit frequency here may not be typical).

Sample of the layout:
SMILES | NTR1 ag | NTR1 ag cell count 20 µM | TNAP activators | GPR55 activation | CSM14.1 death rescue | Yfh1-off respiration | KOR agonists
CCCC(C)NC1=NCCCCC1 (configuration not stated) | -0.3 | 61 | 1.1 | -0.1% | 0.2% | i | 2.7%
CCCNC(=O)N1CCC(C(=O)c2cccc(F)c2)CC1 | -0.7 | 70 | 1.1 | 0.2% | -2.0% | i | 3.2%
COc1ccc(-n2nc([N+](=O)[O-])c(=NCCc3ccc(Cl)cc3)n2O)cc1 | 1.7 | 57 | 1 | -0.1% | -0.4% | nt | 1.1%
COc1ccc(/C=N/NC(=O)CO/N=C(\C)c2cccs2)cc1 | -2.4 | 45 | 1.1 | 0.1% | -1.0% | i | -4.3%
CN1C2C=C3C(C#N)=C(N)C(C#N)(C#N)[C@H](c4c(F)cccc4F)[C@H]3C1CC2 (some centres not stated) | 1.7 | 44 | 1.1 | -0.1% | -0.6% | i | 4.7%
Cc1cc2cc(C(c3nnnn3C(C)(C)C)N(Cc3ccco3)CC3CCCO3)c(=O)[nH]c2cc1C (configuration not stated) | -1.7 | 75 | 0.9 | -0.1% | -0.4% | i | 3.4%
Cc1ccc(NS(=O)(=O)c2cc(C(=O)NCc3ccccn3)ccc2Cl)cc1C | 0.4 | 49 | 1 | -0.1% | -0.9% | i | -2.9%
O=C(O/N=C\c1ccc(N2CCCCC2)c([N+](=O)[O-])c1)c1cccc(Cl)c1 | 4.9 | 42 | 1 | -0.1% | -0.3% | nt | 2.7%
COc1ccccc1NC(=O)CN1CCN(CC(=O)Nc2ccc(Cl)c(C(F)(F)F)c2)CC1 | nt | nt | 1 | 0.2% | 1.8% | i | 17.9%
CCCOc1ccc(C(=O)NNC(=S)NC(C)=O)cc1 | -0.6 | 75 | 1.8 | -0.1% | -1.2% | i | 1.8%
O=C(NN=c1c(=O)c2ccccc2c1=O)c1ccccc1 | 3.0 | 63 | 0.9 | 0.0% | 0.8% | i | -0.8%
CN(CC(=O)NCc1ccc(F)cc1)S(=O)(=O)c1cccc2nsnc12 | -0.4 | 82 | 1 | 0.0% | -1.3% | i | -2.0%
COc1ccc(Cl)cc1C(=O)N1CCN(c2ccccn2)CC1 | -0.5 | 37 | 1 | -0.1% | 0.2% | i | -2.0%
COc1cccc(-n2c(SCC(=O)Nc3sc4c(c3C(N)=O)CCC4)nc3ccccc3c2=O)c1 | 8.9 | 105 | 1 | -0.1% | -0.2% | i | 5.6%

All compounds of this part (from the top)
SMILES | NTR1 ag | NTR1 ag cell count 20 µM | TNAP activators | GPR55 activation | CSM14.1 death rescue | Yfh1-off respiration | KOR agonists
CCCC(C)NC1=NCCCCC1 (configuration not stated) | -0.3 | 61 | 1.1 | -0.1% | 0.2% | i | 2.7%
CCCNC(=O)N1CCC(C(=O)c2cccc(F)c2)CC1 | -0.7 | 70 | 1.1 | 0.2% | -2.0% | i | 3.2%
COc1ccc(-n2nc([N+](=O)[O-])c(=NCCc3ccc(Cl)cc3)n2O)cc1 | 1.7 | 57 | 1 | -0.1% | -0.4% | nt | 1.1%
COc1ccc(/C=N/NC(=O)CO/N=C(\C)c2cccs2)cc1 | -2.4 | 45 | 1.1 | 0.1% | -1.0% | i | -4.3%
CN1C2C=C3C(C#N)=C(N)C(C#N)(C#N)[C@H](c4c(F)cccc4F)[C@H]3C1CC2 (some centres not stated) | 1.7 | 44 | 1.1 | -0.1% | -0.6% | i | 4.7%
Cc1cc2cc(C(c3nnnn3C(C)(C)C)N(Cc3ccco3)CC3CCCO3)c(=O)[nH]c2cc1C (configuration not stated) | -1.7 | 75 | 0.9 | -0.1% | -0.4% | i | 3.4%
Cc1ccc(NS(=O)(=O)c2cc(C(=O)NCc3ccccn3)ccc2Cl)cc1C | 0.4 | 49 | 1 | -0.1% | -0.9% | i | -2.9%
O=C(O/N=C\c1ccc(N2CCCCC2)c([N+](=O)[O-])c1)c1cccc(Cl)c1 | 4.9 | 42 | 1 | -0.1% | -0.3% | nt | 2.7%
COc1ccccc1NC(=O)CN1CCN(CC(=O)Nc2ccc(Cl)c(C(F)(F)F)c2)CC1 | nt | nt | 1 | 0.2% | 1.8% | i | 17.9%
CCCOc1ccc(C(=O)NNC(=S)NC(C)=O)cc1 | -0.6 | 75 | 1.8 | -0.1% | -1.2% | i | 1.8%
O=C(NN=c1c(=O)c2ccccc2c1=O)c1ccccc1 | 3.0 | 63 | 0.9 | 0.0% | 0.8% | i | -0.8%
CN(CC(=O)NCc1ccc(F)cc1)S(=O)(=O)c1cccc2nsnc12 | -0.4 | 82 | 1 | 0.0% | -1.3% | i | -2.0%
COc1ccc(Cl)cc1C(=O)N1CCN(c2ccccn2)CC1 | -0.5 | 37 | 1 | -0.1% | 0.2% | i | -2.0%
COc1cccc(-n2c(SCC(=O)Nc3sc4c(c3C(N)=O)CCC4)nc3ccccc3c2=O)c1 | 8.9 | 105 | 1 | -0.1% | -0.2% | i | 5.6%
O=C(Nc1ccc(-c2nc3ccccc3o2)cc1)c1cccnc1 | 20.4 | 64 | 1 | -0.1% | -1.4% | i | -1.7%
COc1cc(CNC2CCCC2)cc(Cl)c1OCc1ccccc1Cl | 18.7 | 61 | 1.1 | -0.1% | 6.4% | i | 1.7%
CCOC(=O)/C(=C\c1ccc([N+](=O)[O-])o1)NC(=O)c1ccccc1 | -0.3 | 34 | 1.1 | 0.3% | -0.4% | i | -9.0%
CCOC(=O)c1cnc2cc(-c3ccc(C)cc3)nn2c1-c1ccccc1 | 7.0 | 33 | 1 | -0.1% | 0.2% | i | 2.3%
CC1(C)CC(=O)C(C(c2ccco2)C2C(=O)CC(C)(C)CC2=O)C(=O)C1 | 8.0 | 74 | 0.9 | -0.3% | -1.6% | i | -2.3%
C1CCC2=NCCCN2CC1 | 1.0 | 61 | 1.1 | -0.1% | nt | i | -5.0%
CCN(CC)c1ccc(/C=N/NC(=S)NCc2ccccc2)cc1 | 0.8 | 64 | 1.1 | 0.2% | 1.6% | i | 10.6%
O=C(Nc1ccc(Oc2ccccc2)cc1)C1CCN(c2c3c(nc4ncnn24)CCC3)CC1 | 11.5 | 89 | 1.1 | 0.2% | 21.4% | i | 0.3%
CCOC(=O)C1(N(CC)CC)Sc2cc(C)ccc2NC1=O (configuration not stated) | 0.3 | 62 | 1.1 | -0.1% | -0.7% | nt | 5.0%
COc1ccc(CNC(=O)C2CCN(C(=O)N3CCOc4ccc(C)cc43)CC2)cc1 | -1.0 | 46 | 1 | -0.1% | -0.1% | i | 22.2%
O=C(/C=C/c1ccc(-c2ccccc2[N+](=O)[O-])o1)c1ccc(F)cc1 | 7.0 | 55 | 1 | 5.9% | -1.9% | i | 14.0%

Remaining list, next part:
SMILES | NTR1 ag | NTR1 ag cell count 20 µM | TNAP activators | GPR55 activation | CSM14.1 death rescue | Yfh1-off respiration | KOR agonists
CC(C)OC(=O)c1sc2nc(-c3ccccc3)ccc2c1N | 8.2 | 70 | 1.1 | -0.1% | -2.2% | i | 2.5%
CC(C)CNc1cc(N2CCCC2)ccc1[N+](=O)[O-] | -0.6 | 44 | 0.9 | -0.1% | -1.6% | i | 5.4%
COC(=O)c1ccc(C(=O)OC)c(NC(=O)CSCc2ccc(Br)cc2)c1 | 2.9 | 43 | 1.1 | -0.1% | 3.8% | i | -0.6%
Cn1ccnc1Sc1ccc(/C=N/NC(=O)c2ccccc2[N+](=O)[O-])cc1[N+](=O)[O-] | -2.9 | 89 | 1 | 0.6% | -3.1% | i | 5.2%
CCC(C)NC(=O)C(NS(=O)(=O)c1cccc2nsnc12)c1ccccc1 (configuration not stated) | 1.0 | 90 | 1.1 | -0.1% | 3.2% | nt | 3.7%
Cc1ccc(-n2c([O-])nc(-[n+]3ccccc3)c2C=O)cc1 | 0.0 | 59 | 1 | -2.3% | -1.3% | i | 1.1%
COc1ccc(NC(=O)N(C2CCCCC2)C(C)c2cccnc2)c(OC)c1 (configuration not stated) | 0.3 | 34 | 1.1 | 0.3% | -0.5% | i | 1.9%
CC(=O)Nc1ccc(OCC(O)Cn2c3ccccc3c3ccccc32)c(C)c1 (configuration not stated) | 16.4 | 46 | 1.1 | 0.9% | 3.5% | i | 15.8%
CCC(C)(C)NC(=O)C(c1ccc(C)o1)N(Cc1cccs1)C(=O)Cn1nnc2ccccc21 (configuration not stated) | 2.7 | 42 | 1.3 | -0.2% | nt | ? | 3.2%
Cc1sc(NC(=O)C2CCCCC2C(=O)O)c(C(N)=O)c1-c1ccc(C(C)(C)C)cc1 (configuration not stated) | 1.8 | 63 | 0.9 | -0.1% | 5.5% | i | 3.3%
CCOc1ccc2nc(C)cc(C(=O)O)c2c1 | -0.5 | 35 | 1 | 0.3% | -2.6% | i | 1.0%
CCOC(=O)N1CCN(C(=O)c2ccc3c(=O)n(-c4ccc(F)cc4)c(=S)[nH]c3c2)CC1 | -1.1 | 79 | 1.1 | -0.2% | -1.5% | i | -2.0%
Cc1ccc(-c2csc3ncnc(SCC(=O)c4ccc5c(c4)OCCO5)c23)cc1 | 5.1 | 50 | 1.1 | -0.1% | 1.3% | i | 1.0%
CCc1ccc(OCCCOc2ccc(C=O)cc2)cc1 | 0.0 | 79 | 1 | -0.1% | -0.8% | i | 0.3%
CCCCCCCCCCCC(=O)NC(C(=O)OCC)C(O)c1cccc([N+](=O)[O-])c1 (configuration not stated) | 4.1 | 83 | 0.9 | -0.3% | -1.1% | i | 1.3%
O=C(CNC(=O)c1ccccn1)N/N=C/c1ccccc1 | 1.0 | 74 | 0.8 | 0.0% | -0.5% | i | 7.6%
Oc1ccc2ccccc2c1CNc1cnc2ccccc2c1 | -0.6 | 37 | 1 | -0.1% | -0.5% | i | 9.0%
O=C1CSC(c2ccccn2)N1c1ccccc1 (configuration not stated) | -1.3 | 43 | 1.1 | -0.1% | 0.6% | i | 2.3%
O=C(NCC12CC3CC(CC(C3)C1)C2)c1cc2n(n1)C(C(F)(F)F)CC(c1ccco1)N2 (configuration not stated) | 27.8 | 85 | 1 | -0.1% | -1.3% | nt | 6.9%
CCOc1ccc(C(=O)N2CCCC2C(=O)O)cc1 (configuration not stated) | -0.2 | 55 | 1 | -0.3% | -2.5% | i | 1.1%
CCn1nc(C)c(NC(=O)CCSc2nc(-c3ccco3)cc(C(F)(F)F)n2)c1C | -0.7 | 87 | 1.1 | 0.2% | -0.1% | i | 3.8%
Cc1nn(Cc2c(Cl)cccc2Cl)c(C)c1NC(=O)c1cn(-c2ccccc2)nc1-c1ccccc1 | 5.4 | 64 | 1.3 | -0.1% | -1.1% | nt | -3.8%
CCn1c(-c2cccnc2)n[nH]c1=S | 0.4 | 45 | 1 | -0.1% | 4.3% | i | -0.6%
O=C(CSc1ccc(Cl)cc1)N1CCN(c2ccc(Cl)cc2[N+](=O)[O-])CC1 | 2.8 | 75 | 1 | 0.2% | -0.7% | i | 2.3%
CC(=O)Nc1c(NCC(C)C)c2ccccc2oc1=O | 2.5 | 70 | 1.1 | 0.0% | -1.1% | i | -1.7%

Three compounds out of the list above, arranged by their value in TNAP activators, ascending.
SMILES,TNAP activators
Cc1sc(NC(=O)C2CCCCC2C(=O)O)c(C(N)=O)c1-c1ccc(C(C)(C)C)cc1 (configuration not stated),0.9
COC(=O)c1ccc(C(=O)OC)c(NC(=O)CSCc2ccc(Br)cc2)c1,1.1
CCC(C)(C)NC(=O)C(c1ccc(C)o1)N(Cc1cccs1)C(=O)Cn1nnc2ccccc21 (configuration not stated),1.3
